Bioassay records as filed in PubChem.
Menin-MLL FL inh = menin-MLL binding inhibition, fluorescein peptide. 290,000 tested, under 10 active. Fluorescence polarization, fluorescein-MLL peptide displacement from menin. AID 1766. FP activity change, % at 61.4 µM; inconclusive = falling polarisation curve, or a change in total fluorescence; inactive = total fluorescence flat and polarisation flat or rising; no compound was filed as active; the % refers to the polarisation; negative = inhibition;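 note: % of control where 0% means no effect; inhibitors lower the polarisation; unlabelled MLL peptide was the positive control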
gsp antagonist = antagonists of gsp mutant (McCune-Albright syndrome) | AID 624288 | gsp-mutant cells, cAMP HTRF, 30 min; control for the full effect not named in the record | Potency, µM (doses to about 76.9 µM), without a hit: at the highest dose activity change, negative = inhibition, usual class: inhibitors | 340,000 compounds, 0.4% hits; active = falling curve of any shape with a large fitted effect; inconclusive = falling curve, mostly with a smaller effect; inactive = flat or rising curve; cell line not stated here;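 note: intracellular cAMP measured with PDE inhibitor Ro 20-1724 present during compound exposure; potency is the fitted concentration of half-maximal effect; % is set by controls: 0 for no effect and ±100 for the full control effect; nearly all actives have a fitted effect of over 65% in size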
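Cells, 2000/well, grown 16–24 h in DMEM 10% FBS with 0.5 mg/ml G418, then compounds plus […] (300 uM addition stock), 30 min at 37C. cAMP read by HTRF (cAMP-d2 and anti-cAMP antibody-K in lysis buffer) after 30 min RT.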
ClpP mod = qHTS Assay for Activators of ClpP. 340,000 compounds, 1.9% hits. Potency, µM (series often up to 57.5 µM), inactives show top-dose activity change, negative = active. purified B. subtilis ClpP, FRET peptide cleavage, 20 min. AID 651965, 2013; active = well fitted falling curve with a large enough effect; inconclusive = small, poorly fitted or top-dose-only effect; inactive = no such curve, though single readings can be large or run the other way; note: potency is the fitted concentration of half-maximal effect; the source files actives as falling curves though it sought activators and does not explain the sign; nearly all actives have a fitted effect of over 65% in size; many hits overshoot -100%
Target sequence (P80244 whole entry, looked up): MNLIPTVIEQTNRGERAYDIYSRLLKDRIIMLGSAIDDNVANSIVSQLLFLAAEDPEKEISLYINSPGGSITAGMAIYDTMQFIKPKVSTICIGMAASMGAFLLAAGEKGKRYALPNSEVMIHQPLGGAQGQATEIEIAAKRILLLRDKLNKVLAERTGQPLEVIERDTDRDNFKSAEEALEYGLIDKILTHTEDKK
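Buffer: 100 mM Tris/HCl pH8, 100 mM KCl, 0.05% low protease BSA, 2.5% glycerol, 0.01% Tween-20. ClpP 10 microg/mL final; 20 min RT; delta FRET normalized to ADEP and DMSO controls.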
TRPML1 ag = human mucolipin-1 channel agonism. Q9GZU1. TRPML1-expressing cells, Ca2+ dye fluorescence, FDSS; host cell line not named in the record; reference of the full effect not given here. activation, % (concentration not given with the values). 410,000 compounds, 0.12% hits. AID 624414; in the data active = activation above about 50%; inconclusive = about 30% to 50%; inactive = below about 30%; note: 0% is about no effect; the text of the record puts the active cut at 80%
Target sequence (Q9GZU1 whole entry, looked up): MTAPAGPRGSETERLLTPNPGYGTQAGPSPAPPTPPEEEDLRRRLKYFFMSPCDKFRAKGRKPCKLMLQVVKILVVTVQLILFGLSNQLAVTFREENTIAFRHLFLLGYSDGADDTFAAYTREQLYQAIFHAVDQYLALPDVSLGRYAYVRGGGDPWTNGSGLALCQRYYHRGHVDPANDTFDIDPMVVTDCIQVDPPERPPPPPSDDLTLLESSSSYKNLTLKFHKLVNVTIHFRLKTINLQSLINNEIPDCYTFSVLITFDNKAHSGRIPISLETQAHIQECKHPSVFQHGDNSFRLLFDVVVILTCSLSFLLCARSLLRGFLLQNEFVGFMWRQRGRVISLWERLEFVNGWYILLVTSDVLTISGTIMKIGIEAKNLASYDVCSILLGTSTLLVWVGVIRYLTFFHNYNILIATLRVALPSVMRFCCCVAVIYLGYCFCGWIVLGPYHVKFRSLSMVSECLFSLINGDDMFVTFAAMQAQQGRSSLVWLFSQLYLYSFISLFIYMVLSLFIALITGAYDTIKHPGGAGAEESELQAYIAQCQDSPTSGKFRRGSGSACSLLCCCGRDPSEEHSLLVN
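Tet-induced TRPML1-DL cells, 1,500 per well, cultured overnight, were loaded with a no-wash Ca2+ dye for 45–90 min. Calcium fluorescence was recorded on the FDSS for 110 s after compound addition, before the EC80 agonist (4 uM 54-4) was added.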
gsp agonist = gsp mutant agonism. 340,000 compounds, 0.13% hits. Potency, µM (top dose mostly 76.9 µM), without a hit: at the top dose activation (cAMP increase), usual class: activators. gsp mutant cells, cAMP HTRF, 30 min; control for the full effect not named in the record; active = well fitted activation curve with a large enough effect; inconclusive = small, poorly fitted or top-dose-only effect, or another doubt; inactive = no such curve, though single readings can be large or run the other way; cell line not stated here;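 note: phosphodiesterase inhibitor Ro 20-1724 added with compounds to block cAMP breakdown; potency is the fitted concentration of half-maximal effect; nearly all actives have a fitted effect of over 60% in size; about a fifth of the inactives were tested at one dose only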
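Cells in DMEM/10% FBS with G418 were pretreated with compounds in DMSO plus […] (300 uM stock) for 30 min at 37C. cAMP was measured by HTRF (cAMP-d2 plus anti-cAMP antibody-K) after 30 min at room temperature.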
TRPML1 inh = inhibitors of human TRPML1 channel. activity change, negative = inhibition, % (concentration not given with the values). TRPML1-inducible cells, Ca2+ dye fluorescence, FDSS; hits give low values; inhibition of EC80 agonist-evoked calcium signal. 390,000 compounds, 0.02% hits; in the data active means activity change below about -50%; inconclusive means about -30% to -50%; inactive means above about -30%;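 note: stimulus is agonist 54-4 at its EC80 concentration; % is set by controls: 0 for no effect and ±100 for the full control effect; the text of the record puts the active cut at -80%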
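Calcium fluorescence in TRPML1-DL cells induced overnight with Tet: a 110 s read after compound pin addition, then a 110 s antagonist read after challenge with 54-4 at 4 uM final (EC80).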
Numbers without * were called inactive; ? = inconclusive; nt = not tested or not shown; & = joins results of further samples; [ ] = remark or other dose.

SMILES	Menin-MLL FL inh	gsp antagonist	ClpP mod	TRPML1 ag	gsp agonist	TRPML1 inh
C=CCn1c(SCC(=O)N2CCCC2=O)nc2sc(CC)cc2c1=O	nt	?	-5.6%	3.0	-4.5%	27.5
COCc1cc([C@@H]2C[C@H]3CN(c4ccccc4)C(=O)[C@]34CCCN24)ccc1OC	-1.1	-0.3%	-1.6%	0.9	14.7%	0.2
Cn1c(/C=C/N2CCOCC2)c(C(=O)c2ccc(Br)cc2)c(=O)n(C)c1=O	4.2	-5.0%	-3.4%	-0.5	-28.8%	-3.7
CC(C)n1c(NCc2cc(Cl)ccc2O)nc2ccccc21	3.5	?	-0.5%	-0.5	48.9%	5.5
COCCn1c(SCC(=O)c2c(N)n(C3CC3)c(=O)[nH]c2=O)nnc1-c1cccc(C)c1	nt	4.3%	-0.1%	2.5	4.9%	-15.5
O=C1CSC(=S)N1/N=C/C=C/c1ccccc1	7.7	5.6%	-1.6%	1.2	-2.0%	5.1
Cc1ccc(N2C(=O)CSC2c2cccnc2)cc1F (configuration not stated)	5.3	1.1%	-0.4%	-0.3	8.7%	8.6
COc1cc(CN2CCN(c3ccccc3F)CC2)cc(OC)c1O	-2.0	-5.9%	-3.8%	0.4	23.1%	-17.1
Cc1ccccc1Nc1nnc(SCC(=O)NCC2CCCO2)s1 (configuration not stated)	nt	5.5%	2.2%	1.1	30.1%	9.3
CC(C)(C)c1cc(C(F)(F)F)c(C#N)c(=O)[nH]1	-1.4	-13.6%	?	-0.8	-6.7%	4.2
CCOc1ccc(Cl)cc1S(=O)(=O)n1nnc2ccccc21	-0.4	-0.1%	1.0%	-0.2	5.4%	13.4
COc1ccc2c3n([n+]([O-])c2c1)CCN=C3c1cc(Cl)c(N)c(Cl)c1	nt	3.6%	-2.4%	-0.5	nt	1.9
O=S(=O)(CCc1ccccc1)CS(=O)(=O)CCc1ccccc1	nt	0.0%	nt	1.2	-30.8%[inhibitor]	-9.0
C=CCn1c(C(CCCC)CC(O)COCC(C)C)n[nH]c1=S (configuration not stated)	3.0	-0.5%	nt	-0.2	15.4%	-1.5
Cc1c2cnn(CC(=O)Nc3c(F)c(F)cc(F)c3F)c(=O)c2c(C)n1Cc1ccccc1F	?	-3.4%	nt	-0.1	0.2%	26.0
CCOc1ccc(N(CC(=O)NCc2ccc3c(c2)OCO3)C(=O)c2csnn2)cc1	-4.7	2.4%	nt	1.4	0.1%	15.0
CCc1cc(=O)oc2cc(OCC(=O)NCCN3CCOCC3)c(Cl)cc12	nt	7.0%	3.3%	-0.2	?	72.0
C/C(=C\C(=O)OCC(=O)NCc1ccccc1)C(=O)OCC(=O)NCc1ccccc1	11.4	-11.2%	0.6%	0.0	7.3%	6.5
CCn1cc(C(=O)NCC2CCCO2)c(=O)c2cc(S(=O)(=O)N3CCCCC3)ccc21 (configuration not stated)	1.2	-5.4%	-2.4%	-0.5	1.1%	11.5
Cc1ccc(OCCC(=O)OCC(=O)c2ccc3c(c2)NC(=O)CO3)cc1	nt	-16.3%	-0.4%	1.5	?	-7.2
CCOc1ccccc1CN1CCN(C2CCSCC2)CC1CCO (configuration not stated)	-1.6	5.8%	nt	-0.5	-11.9%	18.9
CC(Sc1nnnn1C)C(=O)Nc1ccc(N2CCOCC2)cc1 (configuration not stated)	4.8	-5.5%	1.3%	0.3	-22.2%	-12.8
COc1ccc(OC)c(NC(=O)CC2C(=O)NCCN2C(=O)c2ccccc2)c1 (configuration not stated)	-0.3	4.5%	nt	0.4	-19.7%	9.5
COc1ccc(OCC(O)CN(C2CCCCC2)C2CCCCC2)cc1 (configuration not stated)	1.6	1.5%	0.7%	0.6	-2.7%	-17.1
Cc1ccc(/C=C/c2onc(C)c2S(=O)(=O)N2CCC(C(=O)NCc3ccc(C)o3)CC2)cc1	nt	nt	?	-0.3	nt	17.0
O=C(COC(=O)c1ccccc1OCc1ccc(F)cc1)NCC1CCCO1 (configuration not stated)	nt	-7.0%	-12.4%	0.6	?	3.8
Cc1ccc(-c2noc(CSc3nnc(CCc4ccccc4)n3-c3ccccc3)n2)cc1	-0.5	?	-0.3%	1.9	-58.1%[inhibitor]	6.8
COc1cc(C(c2nnnn2C(C)(C)C)N2CCN(c3nc4ccccc4s3)CC2)ccc1O (configuration not stated)	-1.2	-18.0%	-2.2%	1.5	-0.9%	-21.7
COc1ccccc1-c1noc(CCC(=O)N2CCN(c3cc(C)ccc3C)CC2)n1	nt	?	-1.6%	2.0	nt	26.2
COc1ccc(Br)cc1-c1noc(-c2ccncc2)n1	5.2	12.2%	-1.1%	-0.5	14.5%	-10.3
COC(=O)c1sc(NC(=O)c2ccco2)nc1C	-1.1	0.0%	-2.8%	-0.2	20.6%	-24.0
Cc1ccc(Nc2nnc(C)c(=O)[nH]2)cc1	-4.2	3.6%	nt	1.3	-0.3%[15.4 µM]	-6.3
CCOC(=O)c1cccc(NC(=O)c2c(N)n(C)c(=O)[nH]c2=O)c1	nt	6.4%	-3.4%	-0.5	6.7%	-2.7
O=C(Nc1cc(Cl)ccc1-n1cncn1)c1cncc(Br)c1	nt	-9.4%	nt	-0.6	3.3%[15.4 µM]	-1.1
C=CCc1cccc2cc(C(=O)Nc3ccc(F)cc3)c(=O)oc12	0.9	2.2%	0.1%&0.8%	0.2&-0.6	-44.0%	13.9&3.6
O=C(CCC(=O)c1cccs1)OCC(=O)c1ccc(F)cc1	nt	10.6%	-4.5%	-0.7	-5.6%[15.4 µM]	-12.1
CC(O)CNc1nc2ccccc2n1CC(=O)NCCc1ccc(Cl)cc1 (configuration not stated)	4.6	6.0%	-0.5%	-0.3	-1.4%	6.4
CCc1ccc(C(=O)NC(CCSC)C(=O)OC)cc1 (configuration not stated)	-0.9	4.2%	0.1%	-0.7	1.5%[15.4 µM]	-11.2
Cc1cccc(C)c1OCC(=O)Nc1nnc(C2CCCO2)s1 (configuration not stated)	5.7	1.2%	-14.3%	0.9	18.4%	-4.1
Cc1nc2ccccc2n1S(=O)(=O)c1ccc(Br)cc1	-1.9	8.2%	0.6%	-0.2	18.2%	49.6
Cc1ccc(/C=N/NC(=O)C2=NNC(c3ccccc3)(c3ccccc3)C2)c(O)c1	3.8	-11.7%[15.4 µM]	?	0.7	17.8%	10.2
CCOc1ccccc1NC(=O)c1cccc2ccccc12	-1.1	-15.7%	-5.7%	1.4	12.1%[15.4 µM]	-6.1
Cc1nn(-c2ccccc2)c(N2CCCC2)c1/C=N/NC(=S)Nc1ccccc1F	-0.4	-10.7%	8.5%	3.4	-32.4%	25.7
CCOc1cc2c3c(c1)C1(C(=O)N3C(C)(C)CC2C)C(C#N)=C(N)N2C(=C1C#N)Nc1ccccc12 (configuration not stated)	8.5	-7.3%	0.9%	0.0	5.7%	13.3
COc1cc(NC(=O)CN2CCN(S(=O)(=O)c3ccc(C(C)C)cc3)CC2)cc(OC)c1	-0.9	-10.6%	-1.8%	-0.6	?	-19.1
CC1=CC(C)C(CN(CCC[N+](C)(C)C)C(=O)Nc2ccccc2)C(C)C1 (configuration not stated)	-0.5	11.5%	-0.3%	-0.2	-13.7%[15.4 µM]	0.8
CCN1CCN(C(=O)c2ccc3nc(-c4ccccc4)c(-c4ccccc4)nc3c2)CC1	nt	-13.2%	15.8µM*	0.7	2.3%[15.4 µM]	3.8
C=CCCC(=O)N1C[C@H]2CON(C)[C@H]2C[C@H]1c1ccccc1Br	nt	12.4%	12.5%	-0.8	nt	2.5
CCCCn1c(N)c(N(CCOC)C(=O)COC(=O)CCOc2ccc(C)cc2)c(=O)[nH]c1=O	nt	0.3%	0.1%	-0.2	-26.2%	6.6
CSc1nsc(SC)c1-c1ccc(Cl)cc1	nt	nt	0.5%	1.4	-29.0%	8.6
CC(=O)C1=C(C)OC2(O)c3ccccc3C(=O)C12O (configuration not stated)	1.2	2.0%	-0.1%	-0.8	7.7%	16.9
COc1cccc(CNC(=O)CC(NC(=O)c2ccccc2)c2ccccc2)c1 (configuration not stated)	nt	1.8%	-2.2%	-0.7	-74.5%[inhibitor]	1.1
COc1cccc(NC(=O)CN(C)C(=O)CCN2C(=O)C3CC=CCC3C2=O)c1 (configuration not stated)	nt	10.0%	-2.3%	0.5	1.4%	-1.5
CS(=O)(=O)N(CC(=O)N1CCOCC1)Cc1ccccc1	-0.5	-0.2%	-1.9%	0.4	-0.9%	3.8
CC(=O)N=C1SC2CS(=O)(=O)CC2N1Cc1ccc(C)cc1 (configuration not stated)	-0.6	5.8%	nt	0.3	24.6%	-9.8
COCc1ccc(C(=O)OC(C)C(=O)Nc2c(C)n(C)n(-c3ccccc3)c2=O)cc1 (configuration not stated)	nt	?	-1.2%	-0.4	30.8%	22.6
CC(C)CN1CCC(=O)N(CCSc2ccc(Br)cc2)CC1	-0.7&0.5	2.2%	-7.4%	2.3&1.1	nt	-1.1&-6.3
Cc1cc(C(=O)Nc2cccc(C)c2C)c2c(C)nn(-c3cccc(F)c3)c2n1	nt	nt	0.7%	-0.6	nt	9.0
O=S(=O)(Nc1ccccc1Cl)c1ccc2[nH]c(=S)oc2c1	nt	-0.1%	-2.7%	1.0	12.3%	0.7
Cc1cccc(NC(=S)N(Cc2cccs2)Cc2cc3cc(C)cc(C)c3[nH]c2=O)c1	9.3	-9.3%	-0.9%	0.1	4.3%	13.3

The list continues.
SMILES	Menin-MLL FL inh	gsp antagonist	ClpP mod	TRPML1 ag	gsp agonist	TRPML1 inh
CN(C)S(=O)(=O)c1cccn1-c1ncc(C(F)(F)F)cc1Cl	2.5	0.1%	0.0%	-1.5	28.4%	1.2
O=C(Cc1c(F)cccc1Cl)N/N=C/c1cccnc1	-5.7	3.4%	-3.2%	-0.3	26.7%	-6.9
NNc1nc(Nc2ccc([N+](=O)[O-])cc2)nc(N2CCCCCC2)n1	0.5	-7.2%	-0.3%	nt	-18.8%	nt
Cc1cc(C)nc(NC(=S)Nc2cccc(F)c2)c1	1.7	-11.3%	1.1%	-0.7	2.4%[15.4 µM]	-4.7
COc1ccc(N/C=C(\C#N)S(=O)(=O)c2ccc(Cl)cc2)c(OC)c1	-0.1	-11.7%	-0.5%	nt	-38.3%[inhibitor]	nt
CC1N(O)C(C)(C)C(c2ccccc2)=[N+]1[O-] (configuration not stated)	-0.1	4.6%	-4.9%	0.8	0.1%	6.3
O=C(CSc1ncn[nH]1)NC1CC2CCC1C2 (configuration not stated)	-2.4	2.6%	-3.1%	-0.2	0.0%	-14.4
COc1ccc(C(=O)C23CC4CC(C2)CC(C(=O)c2ccc(OC)cc2)(C4)C3)cc1	-5.9	-20.8%	0.4%	0.7	-101.3%[inhibitor]	-9.0
Cc1snc(SCc2cccc(Cl)c2)c1C#N	-1.5	-1.3%	nt	4.1	22.3%	-8.0
c1cncc(-c2nc(N3CCCCCC3)c3ccccc3n2)c1	1.9	1.0%	0.7%	0.1	5.4%	0.3
O=S(=O)(Nc1ncccn1)c1ccccc1	-0.7	12.1%	-0.4%	0.7	-3.0%[15.4 µM]	27.4
